Assay outcomes (PubChem)
Vaccinia mCherry: qHTS for Stage-Specific Inhibitors of Vaccinia Orthopoxvirus: mCherry Reporter Primary qHTS; Vaccinia virus mCherry reporter infection, fluorescence; about a quarter of the inactives have no number; Potency, µM (top dose mostly 36.5 µM), inactives show at the highest dose activity change, negative = inhibition, hits mostly inhibitors; hit rate 0.63% among 310,000; active = well fitted inhibition curve with a large enough effect; inconclusive = small, poorly fitted or top-dose-only effect; inactive = no such curve, though single readings can be large or run the other way; tested in A549 cells; further: nearly all actives have a fitted effect of over 35% in size; inactives centre near -10
Vaccinia Venus: qHTS for Stage-Specific Inhibitors of Vaccinia Orthopoxvirus: Venus Reporter Primary qHTS. Vaccinia virus Venus reporter expression, fluorescence. Potency, µM (top dose mostly 36.5 µM), for the others: at the highest dose activity change, negative = inhibition, actives largely listed as inhibitors. hit rate 0.46% among 330,000. AID 720580, 2013; active means well fitted inhibition curve with a large enough effect; inconclusive means small, poorly fitted or top-dose-only effect; inactive means no such curve, though single readings can be large or run the other way; tested in A549 cells; further: nearly all actives have a fitted effect of over 30% in size; inactives centre near -10
* marks the source's active call; other numbers are inactive results; i = inactive; ? = inconclusive; · = not tested or not shown; [ ] = another dose, or the depositor's remark. On the % scale 0 is the no-effect control and ±100 the full control effect; potency means the concentration at half of the fitted maximal effect.

Molecule,Vaccinia mCherry,Vaccinia Venus
O=C(N1CCOCC1)N1c2ccccc2Sc2ccccc21,i,-4%
CCCCNC(=O)NS(=O)(=O)c1ccc(C)cc1,-9%[60.7 µM],-4%
COc1ccc(C)cc1NC(=O)COC(=O)c1ccc([N+](=O)[O-])o1,-3%,0%
CCS(=O)(=O)N1CCN(c2ncnc3sc(C)c(C)c23)CC1,-10%,-2%
CC(C)(C)c1nnc(NC(=O)Cc2ccc(Br)cc2)s1,-13%,-10%
O=C(NCC1CCOCC1)c1ccc(OC2CCN(Cc3ccccn3)CC2)cc1,-2%,-10%
O=C(Nc1nccs1)c1ccc(-c2ccccc2Cl)o1,-24%,-13%
CC1CCCN(C(=O)CSc2ncccn2)C1 (stereo not drawn),12%,-2%
CC1CCC2(CC1)NC(=O)c1ccccc1O2 (stereo not drawn),·,-2%
CC(C)c1ccc(OCC(=O)Nc2ccc3oc(=O)ccc3c2)cc1,7%,5%

By substructure: the entries above with a halogen
Molecule,Vaccinia mCherry,Vaccinia Venus
CC(C)(C)c1nnc(NC(=O)Cc2ccc(Br)cc2)s1,-13%,-10%
O=C(Nc1nccs1)c1ccc(-c2ccccc2Cl)o1,-24%,-13%

Other records
Molecule,Vaccinia mCherry,Vaccinia Venus
CCCc1[nH]nc2c1C(CCC)C(C#N)=C(N)O2 (stereo not drawn),0%,-6%
Cc1nc([N+](=O)[O-])c(SCC(N)=O)n1Cc1ccccc1,i,-13%
O=C(NCCCN1CCCC1=O)c1ccc2c(=O)n(Cc3ccco3)c(=S)[nH]c2c1,-15%,-12%
CC(C)(C)C1CCc2c(sc3nc(SCC(N)=O)nc(N)c23)C1 (stereo not drawn),·,?
CCc1nc2c(OCc3ccc(F)cc3)cccn2c1N(C)C(=O)C(C)C,i,-8%
Cc1ccc(NC(=O)CNc2cccc(S(=O)(=O)N3CCCC3)c2)cc1F,-15%,-21%
CCOc1ccc(-n2c(-c3ccco3)nc3c(cnn3-c3ccc(C)cc3)c2=O)cc1,i,-7%
CCCCn1c(N)c(N(CC)C(=O)c2ccccc2F)c(=O)[nH]c1=O,-4%,-9%
CCCNC(=O)Cn1c(=O)c2cccn2c2cccnc21,-5%,-8%
CC(OC(=O)CN1C(=O)C2CCCCC2C1=O)C(=O)Nc1ncc(Cl)cc1Cl (stereo not drawn),i,-10%

Molecule,Vaccinia mCherry,Vaccinia Venus
CN(CC(=O)Nc1ccccc1Br)C(=O)c1ccccc1-c1nc2ccccc2s1,i,-17%
Cc1cccc(Cn2cc(/C=C(/C#N)C(=O)Nc3cccc(Cl)c3)c3ccccc32)c1,-24%,-20%
CC(C)Cn1c2c(c(=O)[nH]c1=O)C(NS(=O)(=O)c1ccc(Cl)cc1)(C(F)(F)F)C(=O)N2 (stereo not drawn),i,-6%
CCOCCCN(C(=O)CNC(=O)c1ccco1)C(C(=O)NC1CCCC1)c1ccccc1C (stereo not drawn),-14%,-1%
COc1ccc(N/C(=C/[N+](=O)[O-])SC)cc1,i,-9%
Cc1ccc(C)c(NC(=O)CSc2nnc(-c3ccncc3)o2)c1,i[7.34 µM],-6%[7.34 µM]
CS(=O)(=O)N(CC(=O)NC1CC2CCC1C2)c1cccc(C(F)(F)F)c1 (stereo not drawn),?,-29%
Cc1ccc(NC(=O)CSc2ncc3c(n2)-c2ccccc2N(C)S3(=O)=O)c(Cl)c1,?,-22%
CCOC1=C2[C@@H](CN(S(=O)(=O)c3ccccc3)[C@H]2c2ccccc2)[C@H]2C(=O)N(c3ccccc3)C(=O)[C@H]2C1,26%,-4%
COc1cc(Cl)c(S(=O)(=O)N2CCN(c3c(C)cccc3C)CC2)cc1Cl,-3%,-2%

Molecule,Vaccinia mCherry,Vaccinia Venus
CCOc1ccc(C=NNc2ccc(S(=O)(=O)Nc3ccccc3C(=O)O)cc2[N+](=O)[O-])cc1OC,-14%,-11%
Cc1ccc(-c2cc(C(=O)Nc3ccc(S(=O)(=O)Nc4nccs4)cc3)c3ccccc3n2)c(C)c1,-16%,-15%
O=C1CC(c2ccccc2)Cc2[nH]c(=O)c(-c3nc(-c4ccc(Cl)c(Cl)c4)cs3)cc21 (stereo not drawn),-19%,-9%
O=C(Nc1ccc(N2CCCCC2)cc1)c1cc(S(=O)(=O)N2CCOCC2)ccc1F,i,-14%
C=CCOc1ccc(CN(C)CC(=O)Nc2ccc3c(c2)CCC3)cc1,-8%,-11%
CCN(C(=O)COC(=O)c1nc(Cl)ccc1Cl)C1CCS(=O)(=O)C1 (stereo not drawn),i,0%
CN(C)C(CNC(=O)Cc1cccc(C(F)(F)F)c1)c1ccco1 (stereo not drawn),-6%,-1%
COc1cccc(-n2nnc3c(=O)n(CC(=O)OCc4ccccc4)cnc32)c1,-12%,-8%
COc1ccc(-c2noc(CNC(=O)c3ccccc3Br)n2)cc1,-8%,-7%
COc1ccc(NC(=O)CSc2nnc(-c3cccc(O)c3)o2)cc1,?,14%

Molecule,Vaccinia mCherry,Vaccinia Venus
COc1cccc(NC(=S)N(CCc2c(C)[nH]c3ccccc23)Cc2cccs2)c1,?,?
Cc1cccc(NCC(=O)N/N=C/c2ccc(Br)cc2)c1,i,-28%
COC(=O)c1ccc(=O)n(Cc2ccco2)c1,i,-7%
N#Cc1c(-c2ccccc2)ccn(Cc2ccccc2Cl)c1=O,i,-1%
Cc1cc(C(=O)Nc2cccc3c2O[C@H](CN(C)CC2CC2)[C@@H](C)CN([C@H](C)CO)C3=O)n(C)n1,-2%,1%
Cc1ccn2c(C(=O)c3ccc(Cl)cc3)cnc2c1,-8%,-4%
COc1ccccc1C(=O)NCCC(=O)NC1CCCC(C)C1C (stereo not drawn),-1%,-12%
Cc1nc(SCc2ccc(C(=O)O)cc2)nc2c1CCCC2,i,-19%
CCN1CCN(c2ccc(S(=O)(=O)N3CCOCC3)cc2NC(=O)/C=C/c2ccc(C)cc2)CC1,-28%,-15%
COc1ccc(-n2nc3c(N4CCC(C(=O)N5CCC(C)CC5)CC4)nnc(C)c3c2C)cc1,-29%,-29%

Molecule,Vaccinia mCherry,Vaccinia Venus
CCn1nc(C)c(CN2CCCC(CO)(Cc3ccccc3)C2)c1C (stereo not drawn),-11%,-15%
O=C(NC1CCN(Cc2ccc(F)cc2)CC1)c1ccccc1,1%,6%
Cc1sc(NC(=O)/C=C/c2ccco2)c(C(=O)O)c1C,-3%,-2%
COc1ccc(S(=O)(=O)NCc2ccccn2)cc1NC(=O)c1ccccc1C,?,?
CCOC(=O)N1CCN(C(=O)CS(=O)(=O)Cc2nc(-c3ccccc3F)oc2C)CC1,-1%,-24%
Cc1ccccc1C(=O)NNC(=O)CSc1nnc(-c2ccncc2)n1-c1ccccc1,-5%,-4%
CCOC(=O)c1ccc(NC(=O)CC2C(=O)N(c3ccc(C)cc3)C(=O)N2C2CCCC2)cc1 (stereo not drawn),-12%,-9%
COc1ccc(CCNS(=O)(=O)c2ccc3c(c2)CC(C)N3C(=O)C2CCC2)cc1OC (stereo not drawn),-9%,-14%
Cc1c(Cc2ccccc2)c(=O)oc2cc(OCC(N)=O)ccc12,i,0%
CN(Cc1c(F)cccc1Cl)C(=O)CNC(=O)c1sc2ccccc2c1Cl,i,-18%

Molecule,Vaccinia mCherry,Vaccinia Venus
COc1cc([C@@H]2c3cc4c(cc3C(O[C@@H]3O[C@@H]5COC(c6cccs6)O[C@H]5[C@H](O)[C@H]3O)C3COC(=O)[C@@H]32)OCO4)cc(OC)c1O (stereo partly drawn),2µM*,?
CCCCn1c(N)c(C(=O)OCCOC)c2nc3ccccc3nc21,-28%,-8%
CCN(CC)c1ccc(C=C2C(=O)N(C)C(=S)N(C)C2=O)o1,7%,85%[activator]
O=C(NC(=S)N1CCN(Cc2ccccc2)CC1)c1ccco1,-10%,-7%
C[C@@H]1CN([C@@H](C)CO)C(=O)CCCn2nncc2CO[C@@H]1CN(C)C(=O)c1ccccc1,i,-10%
COc1ccc(/C=C2/SC(=O)N(CCC(=O)Nc3ccc(S(=O)(=O)Nc4nccs4)cc3)C2=O)cc1,-4%,1%
CN(C)S(=O)(=O)c1ccc(Oc2ccc(S(=O)(=O)N(C)C)cc2)cc1,-24%,?
CC(=O)NC(c1cccc(F)c1)c1nc(-c2ccccc2C)cs1 (stereo not drawn),i,5%
CCC(C)SCc1nc2ccccc2[nH]1 (stereo not drawn),-16%[1.46 µM],-17%
N=c1oc2ccccc2cc1C(=O)N/N=C/c1ccccc1,8%,6%

Record cards, from the list above. Values in the order: Vaccinia mCherry, Vaccinia Venus
O=C(NC(=S)N1CCN(Cc2ccccc2)CC1)c1ccco1 is listed as -10%, -7%
CN(C)S(=O)(=O)c1ccc(Oc2ccc(S(=O)(=O)N(C)C)cc2)cc1 is listed as -24%, ?
N=c1oc2ccccc2cc1C(=O)N/N=C/c1ccccc1 is listed as 8%, 6%

(cont.)
Order of values – Vaccinia mCherry	Vaccinia Venus
- COc1cc(/C=C/C(=O)Nc2ccc3[nH]c(=O)[nH]c3c2)cc(OC)c1OC
 : i	-3%
- Cc1cnc(CNc2ncnc3ccc(-c4ccccc4C#N)cc23)cn1
 : 13%	16%
- CCCCc1nnc(NC(=O)C2CC(=O)N(c3ccc(C)cc3)C2)s1 (stereo not drawn)
 : i	-5%
- Cc1ccc(NC(=O)NNC(=O)C2CC(c3cccs3)=NO2)cc1 (stereo not drawn)
 : i	-2%
- CCOc1ccc(NCc2cc3c(C(C)(C)C)nn(-c4ccccc4)c3[nH]c2=O)cc1
 : -10%	-11%
- O=C(CCc1ccccc1)NCCC1=CCCCC1
 : -10%	-17%
- O=C(N/N=C/c1cc([N+](=O)[O-])ccc1O)c1cccc(NC(=O)c2cccc(Cl)c2)c1
 : -7%	3%
- CCOc1ccc(N(CC)S(=O)(=O)N2CCCC(C(=O)NCc3ccc(SC)cc3)C2)cc1 (stereo not drawn)
 : -15%	-13%
- O=C(c1ccc(Cl)nc1)N1CCC(Cc2ccccc2)CC1
 : -19%	4%
- Cc1ccc2cc(CN(CCN3CCCC3)C(=O)Nc3ccccc3)c(=O)[nH]c2c1C
 : -15%	-10%
- COc1cc(CN(C(=O)COc2ccc(Cl)cc2)c2ccccn2)cc(OC)c1OC
 : i	-17%
- Cn1c(O)c(C=Nc2ccc(N3CCOCC3)cc2)c(=O)n(C)c1=S
 : -14%	4%
- COc1ccc(CCNC(=O)c2ccc3ccccc3n2)cc1OC
 : -9%	-8%
- CCc1nnc(NC(=O)c2nc3nccc(C)n3n2)s1
 : -15%	-16%
- CC(CNS(=O)(=O)c1ccccc1)Sc1ncccn1 (stereo not drawn)
 : i	-3%
- CCC(CC)c1nnc(NC(=O)/C=C/c2ccco2)s1
 : -11%	-17%
- CCNc1ccc(-c2nc(-c3ccncc3)no2)cc1[N+](=O)[O-]
 : -11%	-11%
- CCCCC(=O)NC(=S)Nc1cc(C(=O)O)ccc1OC
 : -5%	-7%
- COC(=O)COc1ccc2c(c1C)O/C(=C\c1ccco1)C2=O
 : i	-6%
- CC1(C)CC(=O)C=C(NNC(=O)OC(C)(C)C)C1
 : i	-11%

Order of values – Vaccinia mCherry	Vaccinia Venus
- CCc1nc2c(OCc3c(C)noc3C)cccn2c1N(C)C(=O)C(C)C
 : 36%[activator]	-4%
- COc1cccc(-c2cc3nc(-c4ccccc4)cc(N4CCN(C(=O)c5ccoc5)CC4)n3n2)c1
 : ?	?
- c1cn(-c2ccc(-c3ccnc4ncnn34)cc2)cn1
 : -3%	-16%
- COc1ccc(-c2ccc(CCC(=O)O)n2CC(=O)Nc2cccc(C(F)(F)F)c2)cc1
 : -3%	-6%
- O=C1CCCC2=C1Sc1ccccc1N2
 : -13%	-2%
- CC(=NNc1ccc2ccccc2n1)c1ccccc1O
 : -14%	-20%
- COC(=O)C1CCN(C(=O)C2CCC(=O)N(CCCc3ccccc3)C2)CC1 (stereo not drawn)
 : -25%	-7%
- Cc1ccc(-n2ncc3c(SCc4ccccn4)ncnc32)c(C)c1
 : 5µM*	5%
- CC(C)(C)C(=O)Nc1ccc(C(=O)COC(=O)C2=COCCO2)cc1
 : -13%	-9%
- C=CCCC(=O)Nc1nc(C)c(-c2csc(Nc3cccc(OC)c3)n2)s1
 : ?	?
- COc1ccc(-c2nc3n(c2C)CCC3)cc1
 : -2%[7.34 µM]	-4%[7.34 µM]
- N#CC(C(=O)NC1CCCCC1)c1nc2ccccc2nc1N1CCN(c2ccccc2F)CC1 (stereo not drawn)
 : -4%	-2%
- COc1ccccc1CNC(=O)C1CCC(CNS(=O)(=O)c2ccc3c(c2)CCCC(=O)N3)CC1 (stereo not drawn)
 : -3%	2%
- O=C(NNC(=O)C1CC1c1ccccc1)Nc1cccc(Cl)c1 (stereo not drawn)
 : -10%	-14%
- NC(=O)c1ccsc1NC(=O)c1cccs1
 : -5%	-8%
- Cc1ccc(N(Cc2cccs2)C(=O)c2ccc(Br)o2)cc1
 : -10%	-3%
- Cc1ccc(CNC(=O)c2ccc3c(O)c(S(=O)(=O)c4ccccc4)c(=O)[nH]c3c2)cc1
 : -11%	1%
- COc1ccc(CCN(C)C(=O)c2cc(-c3ccc(C)cc3)nc3ccccc23)cc1OC
 : -16%	-15%
